Vaccinia inh = blocks a specific stage of Vaccinia orthopoxvirus infection, primary screen, cell-based, single point. Vaccinia-infected cells, mCherry/Venus stage reporter fluorescence; active compounds read low; some inactives read as strong as hits. activity change (mCherry), % (concentration not given with the values). AID 1053133, 2014. hit rate 0.01% among 89,000;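 active = mCherry past -33% and 40 or more points under the early reporter, replicates agreeing; inconclusive = past -33% without that gap or agreement; tested in A549 cells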;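 also: scaled between vehicle wells and reference inhibitor wells; 23 nL library stock went into each well; one replicate is shown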
Vaccinia inh Venus = further read-out of Vaccinia inh, marked with its call; activity change (Venus), %; measured here: Venus reporter, other viral stage;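 negative = less Venus signal; first of two replicates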
Numbers without * were called inactive; ? = inconclusive; nt = no result given; & = joins results of further samples. This is a subset; the hit share may differ from the screen's.

structure | Vaccinia inh | Vaccinia inh Venus
COc1ccc2c3c(n(C)c2c1)[C@@H](CO)N(C(=O)c1ccccc1)CC31CN(C(C)=O)C1 | 10 | 6
C[C@H](CO)N1C[C@H](C)[C@@H](CN(C)CC2CCCCC2)Oc2ccc(NS(=O)(=O)c3cccs3)cc2CC1=O | ? | nt
CO[C@H]1CN(C)C(=O)c2ccc(NC(=O)Nc3cc(F)ccc3F)cc2OC[C@@H](C)N(C(=O)c2ccccn2)C[C@@H]1C | 22 | 22
C[C@@H]1CN([C@H](C)CO)C(=O)c2cc(N(C)C)ccc2O[C@@H](C)CCCCO[C@H]1CN(C)C(=O)C1CCCCC1 | ? | nt
CO[C@@H]1CN(C)C(=O)c2cc(NC(=O)C3CC3)ccc2OC[C@H](C)N(C(=O)NC(C)C)C[C@@H]1C | 12 | 17
COc1ccc2c3c(n(C)c2c1)[C@H](CO)N(CC1CC1)CC31CN(S(=O)(=O)c2cn(C)cn2)C1 | 5 | -4
C[C@H]1CN([C@@H](C)CO)C(=O)c2cc(NS(=O)(=O)c3cccs3)ccc2O[C@H]1CN(C)C(=O)Nc1ccc2c(c1)OCO2 | 34 | 13
C[C@H]1CN([C@@H](C)CO)C(=O)Cc2cc(NC(=O)Nc3ccc(C(F)(F)F)cc3)ccc2O[C@H]1CN(C)C(=O)Nc1ccc(C(F)(F)F)cc1 | ? | nt
CCNC(=O)Nc1ccc2c(c1)C(=O)N(C)[C@@H]1CC[C@@H](CC(=O)NCCOC)O[C@@H]1CO2 | 2 | 4
CO[C@H](CN(C)S(=O)(=O)c1ccc(Cl)cc1)[C@H](C)CN(Cc1ccccc1Cl)[C@H](C)CO | -22 | -15
CN(C)C(=O)C[C@@H]1C=C[C@H](NC(=O)NC2CCCC2)[C@@H](CO)O1 | 15 | 21
Cc1noc(C)c1S(=O)(=O)N(C)C[C@@H]1Oc2c(NC(=O)C3CC3)cccc2C(=O)N([C@@H](C)CO)C[C@@H]1C | 15 | 11
COC(=O)C[C@H]1CC[C@H]2[C@@H](COc3ccc(NC(=O)C4CC4)cc3C(=O)N2C)O1 | 0 | 4
CC(C)NC(=O)N(C)C[C@@H]1Oc2ccc(NC(=O)Cc3cn(C)c4ccccc34)cc2CC(=O)N([C@H](C)CO)C[C@@H]1C | 9 | 2
COc1ccc(NC(=O)N(C)C[C@H]2Oc3c(NC(=O)c4nc5ccccc5s4)cccc3C(=O)N([C@@H](C)CO)C[C@@H]2C)cc1 | -9 | 0
CCS(=O)(=O)N1CCCCN2[C@@H](CO)[C@@H](c3ccc(-c4ccccc4F)cc3)[C@@H]2C1 | -11 | 0
COCC(=O)N(C)C[C@@H]1Oc2cc(C#Cc3ccccc3)ccc2S(=O)(=O)N([C@@H](C)CO)C[C@H]1C | -28 | -21
COc1ccc2c3c(n(C)c2c1)[C@@H](CO)N(Cc1nccs1)CC31CN(C(=O)CC2CC2)C1 | 14 | 7
C[C@@H]1CN([C@H](C)CO)C(=O)c2cc(C#CCN(C)C)cnc2O[C@@H]1CN(C)Cc1ccc2c(c1)OCO2 | -6 | -4
C[C@H](CO)N1C[C@H](C)[C@@H](CN(C)C(=O)C2CCCCC2)Oc2ncc(C#CCc3ccccc3)cc2C1=O | -5 | -4
CC(=O)N(C)C[C@@H]1Oc2ncc(C#Cc3cccc(F)c3)cc2C(=O)N([C@H](C)CO)C[C@@H]1C | 16 | 7
CC(=O)N(C)C[C@@H]1Oc2cc(/C=C/c3ccccc3)ccc2S(=O)(=O)N([C@H](C)CO)C[C@@H]1C | -10 | -17
CO[C@@H]1CN(C)C(=O)c2ccc(NC(=O)c3cnccn3)cc2OC[C@@H](C)N(C(=O)C2CC2)C[C@H]1C | 6 | 5
OC[C@H]1[C@@H](c2ccc(C#CC3(O)CCCC3)cc2)[C@@H]2CN(Cc3ccncc3)CCCCN12 | 7 | 4
C[C@@H]1CN([C@H](C)CO)C(=O)c2cc(C3=CCCCC3)cnc2O[C@@H]1CN(C)C(=O)Cc1ccccc1 | -11 | -21

As a short view, some entries already given:
structure | Vaccinia inh | Vaccinia inh Venus
COc1ccc2c3c(n(C)c2c1)[C@@H](CO)N(C(=O)c1ccccc1)CC31CN(C(C)=O)C1 | 10 | 6
C[C@H](CO)N1C[C@H](C)[C@@H](CN(C)CC2CCCCC2)Oc2ccc(NS(=O)(=O)c3cccs3)cc2CC1=O | ? | nt

The results go on:
structure | Vaccinia inh | Vaccinia inh Venus
CO[C@@H]1CN(C)C(=O)c2ccc(NC(C)=O)cc2OC[C@H](C)N(C(=O)C2CCOCC2)C[C@@H]1C | 20 | 16
CCC(=O)N(C)C[C@H]1Oc2ncc(-c3ccc(F)cc3)cc2C(=O)N([C@H](C)CO)C[C@@H]1C | 23 | 12
COc1ccc(S(=O)(=O)N(C)C[C@@H]2OCCCC[C@@H](C)Oc3ccc(NC(=O)Nc4ccc(C(F)(F)F)cc4)cc3C(=O)N([C@@H](C)CO)C[C@H]2C)cc1 | -13 | -9
Cc1noc(C)c1S(=O)(=O)N(C)C[C@@H]1OCCCC[C@@H](C)Oc2ccc(NS(=O)(=O)c3cccs3)cc2C(=O)N([C@@H](C)CO)C[C@@H]1C | 7 | 2
O=C(C[C@H]1C[C@@H]2c3cc(NS(=O)(=O)c4ccc(F)cc4)ccc3O[C@@H]2[C@@H](CO)O1)NCc1cc(F)ccc1F | -15 | -13
COc1cccc(-c2ccc3c(c2)O[C@@H](CN(C)Cc2cncnc2)[C@@H](C)CN([C@H](C)CO)S3(=O)=O)c1 | 0&-22 | 2&-20
COc1ccc(NC(=O)Nc2ccc3c(c2)C(=O)N([C@H](C)CO)C[C@H](C)[C@H](CN(C)C(=O)Nc2ccc(C(F)(F)F)cc2)OCCCC[C@H](C)O3)cc1 | 20 | 8
COc1ccccc1-c1ccc2n(c1=O)C[C@H]1[C@H](CO)[C@@H](C(=O)NCc3ccccc3F)N[C@@H]21 | 19 | 14
C[C@H](CO)N1C[C@H](C)[C@H](CN(C)C(=O)c2ccccc2)OCCCC[C@H](C)Oc2ccc(NC(=O)Cc3ccccc3)cc2C1=O | -17 | -9
COc1ccc(S(=O)(=O)N(C)C[C@H]2Oc3ccc(NC(=O)Cn4cnnn4)cc3CC(=O)N([C@@H](C)CO)C[C@H]2C)cc1 | 13 | 15
CO[C@@H]1CC[C@H]2CCOc3ccc(C#N)cc3C(=O)N(C)C[C@@H](OC)[C@@H](C)C(=O)N(C)C[C@H]1O2 | -22 | -25
C[C@@H]1CN([C@@H](C)CO)C(=O)c2cc(NC(=O)Nc3ccc4c(c3)OCO4)ccc2O[C@H]1CN(C)S(C)(=O)=O | 16 | 7
CC(=O)N1CC(=O)N2[C@@H](CO)[C@@H](c3ccc(C#Cc4cccnc4)cc3)[C@@H]2C1 | -6 | -7
COc1cccc(NC(=O)N(C)C[C@@H]2Oc3cc(C#Cc4ccncc4)ccc3S(=O)(=O)N([C@@H](C)CO)C[C@H]2C)c1 | ? | nt
COc1ccc(S(=O)(=O)N[C@H]2CC[C@H](CCNC(=O)Cc3ccccn3)O[C@@H]2CO)cc1 | 1 | -2
CCNC(=O)Nc1ccc2c(c1)C(=O)N(C)[C@@H]1CC[C@H](CC(=O)NCCOC)O[C@@H]1CO2 | 10 | 14
CC(C)NC(=O)N1[C@@H](CO)[C@@H](c2ccccc2)C12CN(Cc1ccccc1)C2 | -5 | 3
COc1ccc(NC(=O)N[C@H]2CC[C@H](CCNC(=O)c3cc(Cl)cc(Cl)c3)O[C@@H]2CO)cc1 | -4 | 4
C[C@@H]1CN([C@H](C)CO)C(=O)c2cc(/C=C/c3ccccc3)cnc2O[C@H]1CN(C)C(=O)C1CCCCC1 | ? | nt
Cc1ccc(-c2cnc3c(c2)C(=O)N([C@@H](C)CO)C[C@@H](C)[C@@H](CN(C)Cc2ccccc2C(=O)O)O3)cc1 | 0 | -2
COCC#Cc1cnc2c(c1)C(=O)N([C@H](C)CO)C[C@H](C)[C@@H](CN(C)C(=O)NC1CCCC1)O2 | 24 | 12
CC(C)(C)[S@@](=O)N1Cc2cc(C(=O)NC3CCCC3)nc(-c3cccc(Br)c3)c2[C@H]1CCO | -24 | -3
C/C=C/c1ccc2c(c1)O[C@@H](CN(C)C(=O)c1ccccc1)[C@H](C)CN([C@H](C)CO)S2(=O)=O | -16 | -17
Cc1ccccc1S(=O)(=O)N1C[C@H](O)COC[C@@H]2O[C@H](CC(=O)NCCc3ccccc3)CC[C@H]21 | 4 | -7
C[C@H](CO)N1C[C@H](C)[C@H](CN(C)Cc2ccc(O)cc2)OCc2ccccc2-c2c(n(C)c3ccccc23)C1=O | -6 | 0

Five entries drawn at random from those above:
structure | Vaccinia inh | Vaccinia inh Venus
CCS(=O)(=O)N1CCCCN2[C@@H](CO)[C@@H](c3ccc(-c4ccccc4F)cc3)[C@@H]2C1 | -11 | 0
C[C@H]1CN([C@@H](C)CO)C(=O)c2cc(NS(=O)(=O)c3cccs3)ccc2O[C@H]1CN(C)C(=O)Nc1ccc2c(c1)OCO2 | 34 | 13
CC(C)NC(=O)N(C)C[C@@H]1Oc2ccc(NC(=O)Cc3cn(C)c4ccccc34)cc2CC(=O)N([C@H](C)CO)C[C@@H]1C | 9 | 2
CO[C@@H]1CN(C)C(=O)c2cc(NC(=O)C3CC3)ccc2OC[C@H](C)N(C(=O)NC(C)C)C[C@@H]1C | 12 | 17
C/C=C/c1ccc2c(c1)O[C@@H](CN(C)C(=O)c1ccccc1)[C@H](C)CN([C@H](C)CO)S2(=O)=O | -16 | -17

The list goes on:
structure | Vaccinia inh | Vaccinia inh Venus
Cc1ccc(S(=O)(=O)NCC[C@@H]2CC[C@@H](NC(=O)Nc3cccc(F)c3)[C@@H](CO)O2)cc1 | -18 | -8
CCN(C[C@H]1[C@H](c2ccccc2)[C@@H](CO)N1CC1CC1)C(=O)c1ccccn1 | 9 | 3
C[C@]12CCC3C4(C=CC5(C=C4C(=O)C4CCCCC4)C[C@@H](O)CC[C@]35C)C1CC[C@@]2(O)CN1CCC(n2c(=O)[nH]c3ccccc32)CC1 (stereo partly drawn) | -21 | -6
O=C(Nc1ccc2c(c1)[C@H]1C[C@H](CC(=O)N3CCc4ccccc4C3)O[C@@H](CO)[C@H]1O2)c1ccc2c(c1)OCO2 | -1 | -1
COc1cccc(-c2ccc3c(c2)[C@H]2[C@H](CCN2C(=O)C2CCCC2)[C@H](CO)N3)c1 | ? | nt
CO[C@H]1CN(C)C(=O)c2cc(NC(=O)c3ccccc3F)ccc2OC[C@H](C)N(CC2CC2)C[C@H]1C | -5 | -11
C[C@@H]1CCCCO[C@H](CN(C)Cc2ccncc2)[C@@H](C)CN([C@H](C)CO)C(=O)c2cc(NC(=O)C3CCCCC3)ccc2O1 | -6 | 1
CCS(=O)(=O)N1CCCCN2[C@H](CO)[C@H](c3ccc(C4=CCCC4)cc3)[C@H]2C1 | 14 | -6
CC=Cc1ccc2n(c1=O)C[C@@H]1[C@@H](CO)[C@H](C(=O)Nc3ccccc3)[C@H]2N1C(=O)CC (mixture of isomers) | 9 | 15
C[C@H](CO)N1C[C@H](C)[C@@H](CN(C)Cc2ccccc2)Oc2ccc(NS(=O)(=O)c3ccc(Cl)cc3)cc2C1=O | 1 | -1
COc1ccc(NC(=O)N(C)C[C@@H]2Oc3ccc(NS(=O)(=O)c4c(C)noc4C)cc3C(=O)N([C@H](C)CO)C[C@H]2C)cc1 | 42 | 42
C[C@H](CO)N1C[C@H](C)[C@H](CN(C)C(=O)Nc2ccnc(N3CCOCC3)c2)OCc2ccccc2-c2c(n(C)c3ccccc23)C1=O | ? | nt
C[C@@H]1CN([C@H](C)CO)C(=O)c2cccc(NS(C)(=O)=O)c2O[C@H]1CN(C)Cc1ccncc1 | -2 | 3
CNC[C@H]1Oc2c(cccc2N(C)C)C(=O)N([C@H](C)CO)C[C@H]1C | 5 | 10
C[C@H]1CCCCO[C@H](CN(C)Cc2ccccc2)[C@@H](C)CN([C@@H](C)CO)C(=O)c2cc(N(C)C)ccc2O1 | -22 | -21
COc1ccc2c3c([nH]c2c1)[C@H](CO)N(C(=O)C1CCCC1)CC31CN(C(=O)c2ccncc2)C1 | 18 | 9
CO[C@@H]1CN(C)C(=O)c2ccc(NC(=O)Nc3ccc(Cl)cc3)cc2OC[C@H](C)N(C(=O)Nc2c(C)noc2C)C[C@@H]1C | -7 | -4
C[C@H](O)C#Cc1ccc2c(c1)O[C@H](CN(C)C(=O)c1ccccc1)[C@@H](C)CN([C@@H](C)CO)S2(=O)=O | 6 | 4
Cc1noc(C)c1NC(=O)N(C)C[C@H]1Oc2ccc(NC(=O)C3CCCCC3)cc2C(=O)N([C@@H](C)CO)C[C@H]1C | 3 | 7
COCC#Cc1ccc([C@@H]2[C@H]3CN(Cc4cncnc4)CCCCN3[C@H]2CO)cc1 | 14 | 8
C[C@H]1CN([C@@H](C)CO)C(=O)c2cccc(NC(=O)Nc3ccc4c(c3)OCO4)c2O[C@@H]1CN(C)S(=O)(=O)c1ccc(Cl)cc1 | 1 | -2
CCN(C[C@H]1[C@H](c2ccccc2)[C@H](CO)N1CC1CC1)C(=O)c1ccccn1 | 12 | 8
O=C(NC1CCCCC1)N1C[C@@H]2N[C@H](C1)C2c1ccc(-c2cccc(F)c2)cc1 (stereo partly drawn) | ? | -6
C[C@@H]1C=C(C(=O)N2CCOCC2)O[C@H](OCc2ccc(CO)cc2)C1 | 21 | 17
Cc1ccc(S(=O)(=O)N2C[C@@H](O)COC[C@H]3O[C@H](CC(=O)NCCN4CCCCC4)CC[C@@H]32)cc1 | -8 | -3
C[C@H](CO)N1C[C@H](C)[C@@H](CN(C)CC2CCCCC2)Oc2ccc(NC(=O)c3ccncc3)cc2C1=O | 17 | 10
O=C(C[C@@H]1C[C@@H]2c3cc(NC(=O)NC4CCCC4)ccc3O[C@@H]2[C@@H](CO)O1)NCc1ccccc1 | 8 | 10
C[C@@H]1CN([C@H](C)CO)C(=O)c2cc(NC(=O)Nc3cccc4ccccc34)ccc2O[C@H]1CN(C)C | 7 | 13
